Screens deposited in PubChem BioAssay by several laboratories.
Vif TR-FRET: HIV-1 Vif–A3G interaction blockers – biochemical, TR-FRET, GST-Vif 1-94, biotin-A3G peptide, dose response retest, primary screen (AID 1117319). 260,000 tested, 0.57% active. one-dose inhibition, %; IC50 in µM for titrated hits. TR-FRET GST-Vif / biotin-A3G peptide binding; higher % means a stronger effect; test concentration not given here; strong numbers were not always called active;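 active = above the screen mean plus three standard deviations and confirmed in dose response; inconclusive = results disagree or hit not tested in dose response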;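 also: Vif residues 1-94 fused to GST binding biotinylated APOBEC3G peptide 110-148; 0% = full assay without inhibitor and 100% = GST in place of GST-Vif; retest series ran down from 100 µM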
Calb FLC: C. albicans growth modulation with fluconazole; 300,000 tested, 0.57% active; C. albicans CaCi-2 (fluconazole-resistant clinical isolate) + fluconazole, Alamar Blue growth, 48 h; AID 1979; growth inhibition, % (test concentration not listed);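 active = most replicates above 75%; inconclusive = exactly half above 75%; inactive = most below 75%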;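 also: all wells also contain fluconazole at 8 µg/ml as a sub-toxic cotreatment; 0% = median of DMSO wells and 100% = median of geldanamycin control wells; wells of about 8 µL received 7.5 nL stock; the first replicate is given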
A1 inh: inhibitors of the anti-apoptotic protein A1, read as caspase activation; caspase activation, % (test concentration not listed); 330,000 tested, 0.066% active; MEF A1-2A-BIM cells, Caspase-Glo 3/7 luminescence, 3 h; percent of clofoctol response, vehicle zero;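 active = over half of replicate activation scores above 10%, or exactly half above 10 with the replicate mean above 10; inconclusive = replicate mean below 10 yet half the replicates above 10; inactive = over half of replicates below 10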;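 also: wells of about 30 µL received 50 nL stock; many hits fall short of the cut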
MLL AF4-AF9 inh: blocks AF4 peptide binding to human AF9 | P42568 | AlphaScreen, biotin-AF4 peptide binding to FLAG-AF9 | inhibition, % at 10 µM | 350,000 tested, 0.47% active;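 active = every replicate reaching a set inhibition limit, whatever the replicate mean, cut at about 25% in these data; inconclusive = mean inhibition reaches that limit but some replicates miss it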;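 also: 0% = plate neutral control median and 100% = total signal loss; the record names both 10 and 1 µM as test concentration; the first replicate is given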
Target sequence (P42568 whole entry, looked up): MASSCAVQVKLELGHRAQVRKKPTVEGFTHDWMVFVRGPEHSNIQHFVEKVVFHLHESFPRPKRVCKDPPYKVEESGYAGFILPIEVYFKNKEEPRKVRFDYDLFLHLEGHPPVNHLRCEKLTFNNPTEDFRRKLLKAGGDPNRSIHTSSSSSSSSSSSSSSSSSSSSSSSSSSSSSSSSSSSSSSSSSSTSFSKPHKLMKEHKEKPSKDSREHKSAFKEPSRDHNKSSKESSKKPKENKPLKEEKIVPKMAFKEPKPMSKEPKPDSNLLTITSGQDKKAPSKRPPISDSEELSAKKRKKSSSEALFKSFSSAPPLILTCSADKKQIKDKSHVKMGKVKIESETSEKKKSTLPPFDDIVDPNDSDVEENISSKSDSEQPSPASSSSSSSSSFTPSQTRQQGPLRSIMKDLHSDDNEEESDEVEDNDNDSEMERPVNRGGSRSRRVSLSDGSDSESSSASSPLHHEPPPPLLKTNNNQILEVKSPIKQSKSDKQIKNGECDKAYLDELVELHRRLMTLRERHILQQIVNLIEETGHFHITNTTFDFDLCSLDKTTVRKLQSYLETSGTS
Beta cell apopt: blocks beta cell apoptosis. protection from apoptosis, % (concentration not given with the values). 300,000 tested, 0.8% active. INS-1E cytokine-induced death, ATP luminescence, 48 h; percent of positive-control rescue, neutral wells zero;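 active = all replicates at 75% or more, or half of them and the mean; inconclusive = half reach 75% but not the mean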;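 also: 0% = cytokine-treated negative control wells and 100% = positive control rescue; higher means more ATP so stronger rescue from cytokine killing; wells of about 40 µL received 100 nL stock; the first replicate is given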
T cruzi inh: blocks replication of Trypanosoma cruzi; T. cruzi beta-gal in NIH3T3, luminescence, 90 h; inhibition, % (test concentration not listed); 300,000 tested, 1.4% active; AID 1885;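 active = mean inhibition across valid replicates above about 55%, limit read from the data; inconclusive = mean below that limit but half or more replicates reach it; inactive = mean below it, under half of replicates reach it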;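 also: signal also drops with host cell toxicity which is not excluded here; 0% = plate median of DMSO wells and 100% = zero luminescence signal; higher percent means less beta-gal luminescence so fewer parasites; stock transfer was 50 nL into about 50 µL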
rRNA inh HTS: inhibitors of bacterial rRNA selective over humanized ribosomes. E. coli WT GFP vs humanized-ribosome RFP mutants, fluorescence, 24 h; stronger effect = lower value; DMSO median 0, no signal -100. GFP signal change (wild-type ribosome), % (test concentration not listed). 350,000 tested, 1.6% active;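 active = significant combined selectivity score with lowered wild-type GFP, culture density cut under 30%, mutant RFP and density less affected; inactive = any of these conditions unmet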; also: one replicate is shown; some compounds called inactive have numbers as strong as hits
RanGTP-Imp inh: disruptors of Ran-importin-beta complex formation – biochemical, FRET, CFP-Ran, YFP-importin-beta, homogeneous, primary screen | 300,000 tested, 1.1% active | inhibition, % (test concentration not listed) | cell-free CFP-Ran/YFP-importin-beta FRET ratio;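 active = most replicates above 15%; inconclusive = exactly half above 15%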;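 also: 0% = DMSO wells and 100% = Ran loaded with GDP instead of GTP; wells of about 40 µL received 100 nL stock; the first replicate is given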
rRNA inh HTS OD600: second read-out of rRNA inh HTS, no call of its own (marks repeat the call); OD600 change, %; measured here: OD600 growth;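 optical density of the mix in the first replicate; 0 = DMSO median and -100 = no signal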
rRNA inh HTS RFP: recorded beside rRNA inh HTS, whose call it bears; RFP signal change, %; measured here: RFP humanized mutant strains;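 first replicate; 0 = DMSO median and -100 = no signal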
* hit, by the source's call; ? = inconclusive; nt = not tested or not shown; & = joins results of further samples.

SMILES	Vif TR-FRET	Calb FLC	A1 inh	MLL AF4-AF9 inh	Beta cell apopt	T cruzi inh	rRNA inh HTS	rRNA inh HTS OD600	rRNA inh HTS RFP	RanGTP-Imp inh
CSCc1cc(N2CCOCC2)nc(-c2ccccc2)n1	-6%	-11	0.2	4.8	-7	15	-5	-14	-3.6	-0.2
O=C(CNc1ccc2ccccc2c1)N/N=C/C=C/c1cccc([N+](=O)[O-])c1	nt	11	0.8	1.9	-6	-21	-15*	-5.0*	6.2*	7.4
CSCCC(NS(=O)(=O)c1ccc(Cl)cc1)C(=O)OCC(=O)NC12CC3CC(CC(C3)C1)C2 (stereo not given)	10%	3	0.0	nt	-6	1	nt	nt	nt	-1.1
N=C1/C(=C\c2ccc(OC(=O)c3ccco3)cc2)C(=O)N=C2SC(N3CCCCC3)=NN12	nt	1	-0.1	-4.0	-1	0	-5	-3	-0.5	?
O=C(CCC1CCCC1)Nc1cc(Cl)ccc1N1CCOCC1	nt	nt	-0.3	-7.1	6	nt	-20	-62	2.5	nt
CC(Sc1nncn1C)C(=O)Nc1ccc(N2CCCCC2)cc1 (stereo not given)	4%	nt	-0.4	5.1	0	nt	1	-3	3.7	nt
CCCOc1ccc(C(=O)Nc2ccc(S(=O)(=O)NC3=NCCCCC3)cc2)cc1	-1%	-2	-0.5	-44	3	7	-4	-10	3.5	2.3
Cc1ccc(NC(=O)C2CC2C)c(Cl)c1 (stereo not given)	-7%	9	-2.9	-1.2	-4	3	-4	9	-11	5.4
COc1ccc(CCN(C(=O)c2ccc(F)cc2)C2=CC3CCC(C2)N3C)cc1OC (stereo not given)	0%	-10	0.2	nt	-8	4	nt	nt	nt	1.6
c1ccc(-c2nnc(-c3ccco3)n2-c2ccccc2)cc1	10%	0	0.5	nt	1	5	nt	nt	nt	-1.0
O=C(CNC(=O)c1ccc(Cl)cc1)NCCCn1ccnc1	3%	-5	0.2	nt	-5	-11	nt	nt	nt	-1.9
COC(=O)/C(=C\c1cccnc1)NC(=O)c1ccc(OCc2ccccc2)cc1	nt	1	0.2	3.9	nt	-2	2	-1	1.2	8.6
Cn1c(C(=O)O)cc2c(=O)n3ccccc3nc21	0%	-4	-1.1	5.0	3	-12	23	8	-2.6	7.7
CCOc1ccc(CN2CCNC(=O)C2CC(=O)NCCCn2ccnc2)cc1 (stereo not given)	-6%	5	0.3	-3.7	-5	-5	9	9	-1.0	-1.8
O=C1N=C2SCCN2/C1=C\c1ccc(Cl)cc1	?	-5	-0.3	nt	-5	-20	nt	nt	nt	-5.9
Cc1nn(Cc2ccccc2)c(Cl)c1C(=O)NCc1ccc(C)n1C	5%	44	-1.3	nt	-4	14	nt	nt	nt	2.4
CCOc1ccc(-n2c(=S)sc3c(=O)[nH]c(SCC(=O)NC(C)CC)nc32)cc1 (stereo not given)	?	-2	0.4	nt	nt	3	nt	nt	nt	-6.3
CCOC(=O)C1CCCN(C(=O)c2ccc(S(=O)(=O)N3CCOCC3)cc2)C1 (stereo not given)	-3%	nt	0.5	-2.2	-1	nt	4	12	0.1	nt
O=C1NC2(CCCCC2)C(=O)N1CC(=O)N(Cc1ccccc1)c1ccccc1	nt	2	0.0	-0.2	-8	-4	2	-15	-0.2	1.3
Cc1cc(C)c(OCCCCCn2ccnc2)c(C)c1	nt	-19	0.3	11	10	48	-8	-2	-1.5	1.5
NNC(=O)c1nn(-c2ccc(Cl)cc2)ccc1=O	8%	0	-0.5	nt	-12	-4	nt	nt	nt	-1.1
O=C(c1ccc(SCc2ccco2)c([N+](=O)[O-])c1)N1CCOCC1	nt	-2	-2.1	-2.5	1	-7	1	-6	0.0	9.2
COc1ccc(OC)c2[nH]c(=O)c(CCNC(=O)c3ccc(Br)o3)cc12	?	6	0.9	nt	3	5	nt	nt	nt	-1.8
CCc1ccc(-c2nn[nH]n2)cc1	3%	-3	0.0	nt	-7	5	nt	nt	nt	1.7
CCOC(=O)CNC(=O)CSc1nc2cccnc2n1C	2%	1	0.6	nt	5	-8	nt	nt	nt	-0.1

Some of the entries above in a different format.
mol: CCc1ccc(-c2nn[nH]n2)cc1
  Vif TR-FRET: 3%
  Calb FLC: -3
  A1 inh: 0.0
  MLL AF4-AF9 inh: nt
  Beta cell apopt: -7
  T cruzi inh: 5
  rRNA inh HTS: nt
  rRNA inh HTS OD600: nt
  rRNA inh HTS RFP: nt
  RanGTP-Imp inh: 1.7
mol: CSCc1cc(N2CCOCC2)nc(-c2ccccc2)n1
  Vif TR-FRET: -6%
  Calb FLC: -11
  A1 inh: 0.2
  MLL AF4-AF9 inh: 4.8
  Beta cell apopt: -7
  T cruzi inh: 15
  rRNA inh HTS: -5
  rRNA inh HTS OD600: -14
  rRNA inh HTS RFP: -3.6
  RanGTP-Imp inh: -0.2
mol: CC(Sc1nncn1C)C(=O)Nc1ccc(N2CCCCC2)cc1 (stereo not given)
  Vif TR-FRET: 4%
  Calb FLC: nt
  A1 inh: -0.4
  MLL AF4-AF9 inh: 5.1
  Beta cell apopt: 0
  T cruzi inh: nt
  rRNA inh HTS: 1
  rRNA inh HTS OD600: -3
  rRNA inh HTS RFP: 3.7
  RanGTP-Imp inh: nt
mol: O=C(CNc1ccc2ccccc2c1)N/N=C/C=C/c1cccc([N+](=O)[O-])c1
  Vif TR-FRET: nt
  Calb FLC: 11
  A1 inh: 0.8
  MLL AF4-AF9 inh: 1.9
  Beta cell apopt: -6
  T cruzi inh: -21
  rRNA inh HTS: -15*
  rRNA inh HTS OD600: -5.0*
  rRNA inh HTS RFP: 6.2*
  RanGTP-Imp inh: 7.4

(further entries)
SMILES	Vif TR-FRET	Calb FLC	A1 inh	MLL AF4-AF9 inh	Beta cell apopt	T cruzi inh	rRNA inh HTS	rRNA inh HTS OD600	rRNA inh HTS RFP	RanGTP-Imp inh
Cc1cc(C)c(C)c(S(=O)(=O)N2CCN(C(=O)C3CSC4(C)CCC(=O)N34)CC2)c1C (stereo not given)	-2%	-2	0.1	nt	-4	2	nt	nt	nt	3.2
CCN(CC)C(=O)Cn1cc(C(=O)C(=O)NCc2ccco2)c2ccccc21	nt	1	-0.2	0.9	-8	0	5	2	-1.7	2.0
COc1cccc(/C=N/n2cnc3cc(C)c(C)cc32)c1OC	-8%	2	0.8	-1.1	0	6	nt	nt	nt	3.6
Cc1noc(C)c1S(=O)(=O)N(CC(=O)NC(C)c1ccccc1)c1ccc(C(C)C)cc1 (stereo not given)	-4%	3	0.2	-7.9	-2	31	4	4	-1.4	0.8
O=C(C1=C[C@@H](c2ccc(C(F)(F)F)cc2)C[C@@H](OCc2ccc(CO)cc2)O1)N1CCOCC1	-3%	-6	0.0	0.8&-1.3	-5	-17	-8	-3	0.3	-0.6
c1ccc(Cc2nnc3sc(-c4cccs4)nn23)cc1	8%	-13	-0.4	nt	0	-2	nt	nt	nt	4.0
CCOc1ccccc1C1C2C(=O)N(c3ccccc3)C(=O)C2ON1c1ccccc1 (stereo not given)	-2%	20	1.0	nt	-11	23	nt	nt	nt	0.0
COC(=O)c1cccnc1-n1c(=O)c2cccnc2n(Cc2cccc(C(F)(F)F)c2)c1=O	-4%	-3	0.7	-7.3	14	6	-7	-6	-2.0	5.3
COC(=O)c1ccc2c(=O)n(CC3CCCO3)c(SCC(=O)Nc3ccc(OC)cc3OC)nc2c1 (stereo not given)	-8%	-5	0.7	-0.2	2	8	2	-1	12	4.0
CCOC(=O)c1cn(CC(=O)Nc2cccc(Cl)c2C)nn1	4%	-5	0.5	nt	-7	-9	nt	nt	nt	6.9
O=C1CC(N2CCC(O)(c3ccc(Cl)cc3)CC2)C(=O)N1 (stereo not given)	19%	-2	0.5	nt	-6	-20	nt	nt	nt	3.6
COc1ccc(C(=O)Nc2ccc(S(=O)(=O)N3CCCC3)cc2)c(OC)c1	-8%	-3	-0.2	nt	6	77*	nt	nt	nt	3.6
CC1=NN2C(=N)/C(=C\c3ccc(SCc4ccccc4)o3)C(=O)N=C2S1	26%	-6	0.4	nt	2	-16	nt	nt	nt	-3.7
COc1ccc(OC)c(-c2cc(C3CCN(c4cc(Cl)nc(N)n4)CC3)[nH]n2)c1	-4%	-25	-0.3	nt	18	45	nt	nt	nt	-2.4
O=C(CSc1nnc(-c2ccccc2F)n1CCc1ccccc1)Nc1ccc2[nH]c(=O)[nH]c2c1	9%	4	-0.2	nt	nt	-13	nt	nt	nt	?
CCSc1nc2ccccc2n1CCOc1ccccc1	-4%	-3	-1.1	nt	-9	6	nt	nt	nt	1.0
O=C(CCNS(=O)(=O)c1ccccc1)NNC(=O)C1COc2ccccc2O1 (stereo not given)	4%	7	0.7	5.9	nt	-12	2	2	-1.9	2.1
COC(=O)Cn1c(=NC(=O)CCS(=O)(=O)c2ccccc2)sc2c(OC)ccc(OC)c21	nt	-1	1.8	0.5	-2	-6	5	5	-1.3	0.4
CCc1nnc(NC(=O)C2CC(=O)N(Cc3ccco3)C2)s1 (stereo not given)	-1%	29	1.2	nt	-3	-12	nt	nt	nt	-1.1
O=C(CCCSc1nc2sc3c(c2c(=O)[nH]1)CCC3)NCCCO	-1%	-3	0.2	-17	-7	-5	4	0	-0.4	3.0
COc1cccc(CC(=O)NN2C(=O)NC3(CCCCC3)C2=O)c1	-8%	nt	-0.4	-2.4	-6	nt	4	2	1.2	nt
CCOc1ccc(S(=O)(=O)NCc2ccncc2)cc1NC(=O)c1ccccc1F	nt	-3	0.0	0.4	-1	-7	6	1	0.8	?
Nc1c(-c2ccccc2)c(CN2CCOCC2)nn1-c1cccc([N+](=O)[O-])c1	19%	4	-0.4	2.3	-2	14	nt	nt	nt	0.2
Cc1ccoc1C(=O)NCCCNC(=O)c1occc1C	7%	0	1.4	nt	1	-10	nt	nt	nt	0.5
O=C(O)/C=C\C(=O)Nc1ccccc1C(=O)NCc1ccccc1	-2%	0	-0.8	nt	-4	-7	nt	nt	nt	4.8
CCCCCCCC(=O)N/N=C/c1ccc([N+](=O)[O-])o1	nt	101*	-0.2	2.0	0	47	-8	1	2.0	-3.7
CC(=O)c1ccc(OCC(O)CN2CC(C)OC(C)C2)cc1 (stereo not given)	3%	-5	-0.7	nt	-3	12	nt	nt	nt	2.7
CC(=O)NCCC(=O)Nc1nc(C)c(Cc2ccc3c(c2)OCO3)s1	nt	-49	0.2	nt	-4	-3	nt	nt	nt	0.1
CC(=O)Nc1sc2c(c1CN1CCCC1)CCCC2	7%	1	0.8	3.8	-7	-1	7	6	5.6	4.7

This is a subset, so the mix of outcomes need not match the whole.
